# HSD17B inhib: HSD17B dehydrogenase inhibition | Potency, µM (highest dose often 57.1 µM), inactives show top-dose activity change, negative = inhibition, usual class: inhibitors | AID 893 | 75,000 tested, 7.6% active | recombinant HSD17B10, NADH fluorescence kinetic; many of its hits are not listed in these tables | Q99714; active = well fitted inhibition curve with a large enough effect; inconclusive = small, poorly fitted or top-dose-only effect; inactive = no such curve, though single readings can be large or run the other way;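 also: the protocol describes HADH2 (HSD17B10) and not the HSD17B4 of the title; nearly all actives have a fitted effect of over 70% in size; most hits overshoot -100% by far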
#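 Enzyme plus compound, 15 min room temperature; substrate mix added (NAD+ 1 mM, beta-hydroxybutyryl-CoA 90 uM final); plates read kinetically for NADH fluorescence. HADH2 was His-tagged, E. coli-derived, 20 nM.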
# An asterisk follows results filed as active; ? = inconclusive; [ ] = dose if it differs, or a comment. % is scaled to controls: 0 for no effect and ±100 for the full control effect; potency is read from the fitted curve at half-maximal effect.
canonical_smiles	HSD17B inhib
CC(C(=O)NCc1cccs1)n1cccc1 (stereo not drawn)	0%
Cc1cc(Br)c2c(c1)=C(c1sc(N3CCCCCC3)nc1O)C(=O)N=2	6%
CCC1=C(OC(=O)N(CC)CC)N2C(=O)OC(=NCCc3c[nH]c4ccccc34)[C@]2(Cc2ccccc2)[C@H]2C1=CC[C@H]1C(=O)NC(=O)[C@H]12	-6%
COCCN1Cc2cccc(C(=O)NCc3ccccn3)c2C1=O	8%
COc1ccccc1/C=C\C(=O)O	2%
CCOc1ccccc1NC(=O)CSc1ncnc2c1oc1ccccc12	8%
CCN(CC)CCCCn1c(-c2ccccc2)nc2c(NCCOC)nc(C)nc21	32µM*
CCCCCCCCCCCCCCCCCC(=O)NCCc1ccc(O)c(O)c1	-10%
Cc1ccccc1NS(=O)(=O)c1cc(S(C)(=O)=O)ccc1Cl	-5%
COC(=O)[C@@]1(Cc2ccc(OC)cc2)[C@H]2c3cc(C(=O)N(C)C)n(Cc4ccc(S(C)(=O)=O)cc4)c3C[C@H]2CN1C(=O)c1ccccc1	1%
CSc1nc2ccc(NC(=O)C3CC(=O)N(Cc4ccco4)C3)cc2s1 (stereo not drawn)	-21%
O=C(NCc1ccccc1)C1CCN(S(=O)(=O)c2cccc3cccnc23)CC1	4%
CCOC(=O)CSc1ncnc2c1nnn2-c1ccc(F)cc1	-14%
CCCCn1nnnc1SCC(=O)c1ccc(C)c(C)c1	-6%
CCOC(=O)c1cccnc1SCc1cc(=O)n2ccccc2n1	?
O=C1[C@@H]2CSCN2C(=O)CN1CCc1cccc(F)c1	-10%
CNc1cc(C)nc(-n2nc(C)cc2C)n1	-1%
CC(C)CNC(=O)c1cc(-c2ccc(Cl)c(Cl)c2)on1	-2%
COC(=O)[C@H](C)NC(=O)C/C=C\[C@@H](C)CO	2%[11.4 µM]
CCCCc1ccc(NC(=O)C2CCCO2)cc1 (stereo not drawn)	6%
Cc1ccnc(N2CCC(C(=O)Nc3ccc4c(c3)CCC4)CC2)n1	-17%
COc1ccccc1NC(=O)C1(C)Cc2ccccc2C(=O)O1 (stereo not drawn)	-3%
Cc1cc(C)cc(OCC(=O)N(Cc2cccs2)C2CCS(=O)(=O)C2)c1 (stereo not drawn)	-5%
COC(=O)c1ccccc1NC(=O)c1ccc(-c2ccccc2F)o1	-2%
COc1cccc(NC(=O)CNC(C)CCC(C)C)c1 (stereo not drawn)	-5%
CC(=O)OC[C@@H]1O[C@@H](O/N=C2/C[C@@H](O)[C@@H](O)[C@@H]3[C@@H]4C(=O)N([C@@H](C)c5ccccc5)C(=O)[C@H]4CC[C@@H]23)[C@H](OC(C)=O)[C@H](OC(C)=O)[C@@H]1OC(C)=O	5%[11.4 µM]
Cn1nnnc1SCC(=O)N1CCN(c2ccc(Cl)cc2)CC1	-9%
Cc1ccc(C)n1-c1ccc2c(c1)COC2=O	-1%
O=C(c1cccc(S(=O)(=O)N2CCOCC2)c1)N1CCCCCC1	9%
CCOC(=O)c1ccc2c(c1)nc(C1CCN(S(=O)(=O)c3cccs3)CC1)n2CC	13%
Cc1oc2c(c(=O)c1C)C(=O)CC(c1ccccc1)C2 (stereo not drawn)	2%
Cc1c(NC(=O)c2cccc(S(=O)(=O)N3CCOCC3)c2)c(=O)n(-c2ccccc2)n1C	-1%
CC(=O)NCN1CCN(CNC(C)=O)CC1	6%
O=c1n(Cc2cc3c(cc2Cl)OCO3)c(=O)n2n1CC[C@H]1/C(=N\OC[C@@H](O)COCc3ccco3)[C@H]3O[C@@H]3[C@@H](O)[C@@H]12	11%[11.4 µM]
CCOC(=O)c1c(C)[nH]c(C(=O)CN2C(=O)NC(CC)(c3ccccc3)C2=O)c1C (stereo not drawn)	-11%
COc1ccc(OC)c(N2C(=O)[C@@H]3C(c4ccccc4Cl)=NO[C@@H]3C2=O)c1	16µM*
COc1cccc(C2=NOC(C(=O)N3CCOCC3)C2)c1 (stereo not drawn)	7%
Cc1cc(Nc2ccc(F)cc2C)n2nc(C)nc2n1	2%
COc1ccccc1N1CCN(C/C=C/c2ccc(N(C)C)cc2)CC1	32µM*
COc1ccccc1NS(=O)(=O)c1ccc(OC)c(OC)c1	4%
CC(NO)C(C)(C)NO (stereo not drawn)	17%
Cn1c(-c2ccc(F)cc2)cnc1NCc1ccc(C#N)cc1	8%
CCCCSCc1nc2nc(Cl)c(Cl)nc2[nH]1	5%[11.4 µM]
Cc1ccccc1NC(=O)c1ccc(F)c(S(=O)(=O)N2CCN(c3ccccn3)CC2)c1	-10%
CC(=O)COc1ccc2c3c(c(=O)oc2c1)CCCC3	25µM*

# 4 entries drawn at random from those above:
canonical_smiles	HSD17B inhib
CCCCCCCCCCCCCCCCCC(=O)NCCc1ccc(O)c(O)c1	-10%
CC(=O)COc1ccc2c3c(c(=O)oc2c1)CCCC3	25µM*
CNc1cc(C)nc(-n2nc(C)cc2C)n1	-1%
O=C(NCc1ccccc1)C1CCN(S(=O)(=O)c2cccc3cccnc23)CC1	4%

# Of the compounds above, 3 contain an NH in an aromatic ring:
canonical_smiles	HSD17B inhib
CCC1=C(OC(=O)N(CC)CC)N2C(=O)OC(=NCCc3c[nH]c4ccccc34)[C@]2(Cc2ccccc2)[C@H]2C1=CC[C@H]1C(=O)NC(=O)[C@H]12	-6%
CCOC(=O)c1c(C)[nH]c(C(=O)CN2C(=O)NC(CC)(c3ccccc3)C2=O)c1C (stereo not drawn)	-11%
CCCCSCc1nc2nc(Cl)c(Cl)nc2[nH]1	5%[11.4 µM]

# (continued)
canonical_smiles	HSD17B inhib
C=CCn1c(=O)c2ccccc2n2c(Sc3nnnn3-c3ccccc3)nnc12	?
O=C(NCCN1CCOCC1)C1CCN(c2nc3ccccc3o2)CC1	-4%
COCCOC(=O)C1=C(C)NC(=O)NC1c1ccc(Cl)cc1 (stereo not drawn)	8%
O=C(O)C1CCN(S(=O)(=O)N2CCOCC2)CC1	12%
Cc1noc(C)c1C(=O)N1CCC[C@@]2(CCN(C(=O)Nc3cccc(F)c3)C2)C1	-2%
Cn1c(=O)cc(SCC(=O)N2CCCC2)c2ccc(Cl)cc21	-1%
COc1ccc2c(Cl)c(C(=O)NC3CCS(=O)(=O)C3)sc2c1 (stereo not drawn)	4%
COC(=O)c1ccc2[nH]c(C)cc(=O)c2c1	25µM*
Cc1occc1C(=O)Nc1ccc2c(c1)OCO2	-1%
Cc1cc(C)nc(Nc2ncc(O)n2-c2ccc(C)c(Cl)c2)n1	-12%
COCCNC(=O)C1CCC(Cn2c(=S)[nH]c3ccccc3c2=O)CC1 (stereo not drawn)	1%
S=c1[nH]nc(-c2cccnc2)o1	1%
O=C(OCC(=O)N1CCN(c2ccccc2)CC1)c1ccccn1	6%
CC(=O)c1cccc(NC(=O)N2CCCC2C(=O)Nc2c(C)cccc2C)c1 (stereo not drawn)	7%
C=CCn1c(CCCNC(=O)C(C)(C)C)nc2ccccc21	5%

# No new results follow: entries from further up.
canonical_smiles	HSD17B inhib
Cc1occc1C(=O)Nc1ccc2c(c1)OCO2	-1%
Cc1cc(C)nc(Nc2ncc(O)n2-c2ccc(C)c(Cl)c2)n1	-12%
COCCNC(=O)C1CCC(Cn2c(=S)[nH]c3ccccc3c2=O)CC1 (stereo not drawn)	1%

# The list continues.
canonical_smiles	HSD17B inhib
O=C(c1ccccc1)N1CCN(Cc2c[nH]c3ccccc23)CC1	4%
COc1ccc(S(=O)(=O)Cc2ccc(C(=O)NC3CCCC3)o2)cc1	4%
COc1ccc(N(CC(=O)NC2CCCC2)C(=O)Cn2nnc(-c3ccc(F)cc3)n2)cc1OC	5%
O=C(O)Cc1nc2nc3c(c(=O)n2[nH]1)CCCC3	4%
N#Cc1nc(Cc2cccc3ccccc23)oc1N1CCCCC1	8%
O=c1[nH]c(N2CCc3ccccc3C2)nc2c1CCC2	9%
O=C(O)/C=C1\NC(=O)c2ccccc21	5%
O=C(c1ccc(N2CCNCC2)cc1)c1cccnc1	2%
O=C(CC(c1ccccc1)c1ccccc1O)NCCN1CCOCC1 (stereo not drawn)	-5%
CCOc1nc2cccc(C(=O)OC(C)OC(=O)OC3CCCCC3)c2n1Cc1ccc(-c2ccccc2-c2nn[nH]n2)cc1 (stereo not drawn)	?
Cc1ccc(C)c(NS(=O)(=O)c2cc(Br)cnc2N)c1	6%
O=C(Nc1ccccc1)N1CCSCC1	1%
Cc1ccc(CNC(=O)c2cn(C3CCCC3)c(=O)c3c2c2ccccc2n3C)o1	25µM*
COc1cc(OC)c(Cl)cc1N	-2%
CCOC(=O)c1c(C)n(C)c2ccc(OCC(O)CN3CCC(C)CC3)cc12 (stereo not drawn)	1%
Cc1nc2ccccc2c(=O)n1NC(=O)c1ccccc1Cl	14%
COC(=O)c1cc(OC)c(OC)cc1NC(=O)Cn1nnc(-c2ccccc2Cl)n1	?
NC(=O)c1cc(S(=O)(=O)NC2CCCCC2)co1	-2%
O=C(OCC#CCSc1nnc(-c2cccc3ccccc23)o1)c1cccs1	32µM*
O=C(CC1SCCNC1=O)Nc1cccc(Cl)c1 (stereo not drawn)	5%
Cc1ccc(CCNC(=O)C2CCCN(S(=O)(=O)c3c(C)nn(C)c3C)C2)cc1 (stereo not drawn)	-2%
COc1ccc(NCc2nnc(SCC(=O)c3ccc(OC)cc3)n2C)cc1	1%
Cc1ccc(Nc2nc(N)nc(CC#N)n2)cc1	9%
O=C(CN1C(=O)C2(OCCCO2)c2ccccc21)NCc1ccccc1	-3%
CN1CCN(C(=O)c2cn(C)c3ccc(S(=O)(=O)N(C)C4CCCCC4)cc3c2=O)CC1	5%
CCOc1nc(-c2ccccc2)ccc1-c1noc(-c2ccncc2)n1	13µM*
COc1ccc(CCNC(=O)CSCc2n[nH]c(=O)[nH]2)cc1OC	84%[activator]
Cc1ccc(C)c(NS(=O)(=O)c2ccc(NC(=O)c3ccco3)cc2)c1	8%
C=CCn1c(SCc2ccccc2)nnc1-c1cccnc1	4%
CC(=O)Nc1ccc(NC(=O)c2ccccc2F)cc1	8%
Cc1cc(=O)[nH]c(Nc2ccc(C(=O)OC(C)C)cc2)n1	-19%
O=C(C1CCC(CNc2c(N3CCCCC3)c(=O)c2=O)CC1)N1CCN(c2ccccn2)CC1 (stereo not drawn)	-29%
CCOc1ccccc1N(CC(=O)OC)S(=O)(=O)c1ccccc1	-7%
O=C(NC1CCCCC1)c1cc2nc3c(c(C(F)(F)F)n2n1)CCCC3	-9%
COc1ccc(OC)c(CCNC(=O)CC2Oc3ccc(C)cc3NC2=O)c1 (stereo not drawn)	-4%
COC(=O)N1CCC2(CC1)CCN(c1ccccc1)CC2	5%
COc1ccc(NC(=O)Cn2c(C)cc(=O)c3cccc(OC)c32)cc1	13%
O=C(NCc1ccccn1)c1n[nH]c2ccccc12	?
O=C(O)CC(C(=O)O)n1nc(-c2ccccc2)cc1-c1ccccc1 (stereo not drawn)	14%
COc1ccc(CNc2ccnc(-c3ccc4c(c3)OCO4)n2)c(OC)c1	2%
COC(=O)c1cn(NC(=O)c2cccnc2)c(=O)c2ccccc12	-23%
CCC(C)NCC(O)COCc1ccc(Cl)cc1 (stereo not drawn)	-1%
CC1CCN(C(=O)Cn2cc(C(=O)c3ccco3)c3ccccc32)CC1	1%
CNS(=O)(=O)c1ccccc1C(=N)c1ccccc1	8%[11.4 µM]
COc1ccc(CN2CCC(C(=O)N3CCN(c4ccccc4F)CC3)CC2)cc1OC	-2%
CC(=O)C(C)Oc1ccc2c3c(c(=O)oc2c1)CCCCC3 (stereo not drawn)	25µM*
Cc1cc(C)nc(NC2=NCCN2C(=O)Nc2ccc(Cl)c(Cl)c2)n1	6%
O=C(NCC(c1cccnc1)N1CCN(c2ccccc2)CC1)C1CCCCC1 (stereo not drawn)	21%
COC(=O)c1cc(/C=C/c2ccccc2)on1	?
CN(c1ccccc1C(=O)Nc1ccc(S(=O)(=O)N2CCCCC2)cc1)S(C)(=O)=O	-1%
COC(=O)[C@@H]1C[C@@H]2CC[C@@H](O)C[C@@H]2N1Cc1ccc(C(F)(F)F)cc1	5%
N=c1n(CCO)c2ccccc2n1CCOc1ccc(Cl)cc1Cl	6%
c1csc(CNc2ncncc2-c2ccoc2)c1	10%
O=C(O)CC(c1ccc(Cl)cc1)n1cccc1 (stereo not drawn)	?
COc1cccc(-n2c(Cc3cc(=O)[nH]c(=O)[nH]3)nnc2SCC(=O)N2CCCC2)c1	8%
O=c1n(-c2ccccc2)c(=O)n2n1CCC2	-6%
O=C(O)CCC(=O)c1ccc2c(c1)OCCO2	2%
Cn1nnc2cc(NC(=O)N3CCN(c4ccccn4)CC3)ccc21	?
COCCCNC(=O)c1ccc(N2CCCC2)c(NS(=O)(=O)c2ccc(C)cc2)c1	-21%
CC(=O)Nc1sc2c(c1C(=O)N1CCOCC1)CCCCC2	10%

# Continuation:
canonical_smiles	HSD17B inhib
C[N+](C)(C)CCN(Cc1cccs1)c1ccccn1	-15%[11.4 µM]
COC(=O)Nc1nnc(-c2ccccc2Cl)s1	32µM*
COC(=O)C1=C(C)N(CC2CCCO2)C(=O)C1 (stereo not drawn)	7%
CCOC(=O)C(C)C1(O)c2ccccc2-c2ncccc21 (stereo not drawn)	4%

# Single values from the list:
# CCOC(=O)C(C)C1(O)c2ccccc2-c2ncccc21 (stereo not drawn) @ HSD17B inhib: 4%
# C[N+](C)(C)CCN(Cc1cccs1)c1ccccn1 @ HSD17B inhib: -15%[11.4 µM]
# COC(=O)C1=C(C)N(CC2CCCO2)C(=O)C1 (stereo not drawn) @ HSD17B inhib: 7%

# Screening data as filed in PubChem BioAssay.

# Some of the compounds tested. The share of hits here may be higher or lower than overall.
